GLA inh pH 4.5: alpha-galactosidase A (human) inhibition, pH 4.5; activity change, negative = inhibition, % at 105 µM; purified enzyme, 4-MU-alpha-Gal fluorescence, pH 4.5; 230,000 tested, under 10 active; P06280; inconclusive = small, poorly fitted or top-dose-only inhibition, or a rising curve; inactive = flat fitted curve, though single readings scatter; no compound was filed as active;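 note: 0% = full activity with enzyme and -100% = basal without enzyme; dose as in the result columns while the protocol names 77 µM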
Target sequence (P06280 whole entry, looked up): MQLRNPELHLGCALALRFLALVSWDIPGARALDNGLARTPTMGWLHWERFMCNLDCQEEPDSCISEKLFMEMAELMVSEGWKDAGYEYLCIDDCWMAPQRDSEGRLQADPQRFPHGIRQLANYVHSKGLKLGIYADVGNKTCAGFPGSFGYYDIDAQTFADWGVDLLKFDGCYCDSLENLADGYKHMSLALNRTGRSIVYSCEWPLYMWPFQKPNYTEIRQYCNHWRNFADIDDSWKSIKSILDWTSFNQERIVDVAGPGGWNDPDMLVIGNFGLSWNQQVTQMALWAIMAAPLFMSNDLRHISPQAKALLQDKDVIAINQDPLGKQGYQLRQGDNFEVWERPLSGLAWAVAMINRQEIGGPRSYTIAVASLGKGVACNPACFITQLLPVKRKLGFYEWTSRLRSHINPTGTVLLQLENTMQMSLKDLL
Rango complex inh: inhibitors of Rango-importin beta complex formation. Potency, µM (titrated, usually from 92.2 µM), without a hit: top-dose inhibition of complex formation. AID 540263. Rango CFP/YFP FRET sensor + importin beta, 45 min. actives 0.031% (n = 340,000). Q14974; active = rising FRET ratio curve, often small or poorly fitted; inconclusive = mostly compound fluorescence or quenching in the first reads; inactive = flat curves in all reads;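 note: potency is the fitted concentration of half-maximal effect; 0% = DMSO wells and 100% = buffer wells lacking importin beta; nearly all actives have a fitted effect of over 15% in size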
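FRET biosensor (snurportin 1 IBB flanked by EYFP and cerulean), 50 nM, with compound 5 min, then 0.125 microM importin beta in PBS, 1 mM DTT, 0.02% Tween-20, 0.1% BSA. CFP/YFP ratio read after 45 min at room temperature; pre-read flags interference.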
Rango release inh: inhibitors of RanGTP-induced Rango-importin beta complex dissociation; O95149+P62826; Biochemical FRET Rango-importin beta, RanGTP-induced dissociation; Potency, µM (titrated, usually from 46.1 µM), inactives show at the top dose activity change, negative = inhibition; actives 0.071% (n = 340,000); active means falling FRET ratio curve, often poorly fitted, with flat reads before Ran was added; inconclusive means other falling curves, or compound fluorescence or quenching; inactive means flat or rising ratio curve;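 note: potency is the fitted concentration of half-maximal effect; % of control where 0% means no effect; nearly all actives have a fitted effect of over 45% in size; -100% = wells without RanGTP and RCC1; the record marks most hits as doubtful in a second field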
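Compounds preincubate 5 min with complex of recombinant Rango and importin beta in PBS with 1 mM DTT. Ran (0.6 uM) loaded with 2 mM GTP plus 0.2 uM RCC1 starts dissociation; FRET is recorded 45 min later.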
miR-21 FLuc: raises the signal of a miR-21 reporter; HeLa miR-21 FLuc reporter, luciferase, 48 h; AID 2288; 340,000 tested, under 10 active; Potency, µM (titrated, usually from 38.3 µM), without a hit: at the top dose reporter change, positive = more light; active = well fitted rising curve with a large enough effect; inconclusive = small, poorly fitted or top-dose-only effect; inactive = no such curve, though single readings can be large or run the other way;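 note: % of control where 0% means no effect; miR-21 action dims this reporter so a rising signal means less miR-21 action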
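HeLa miR-21-FLuc reporter line, endogenous miR-21; 2000 cells/well in DMEM/10% FBS; compound titration up to ~40uM final, 48 h, 37 degree Celsius; luciferase detection reagent, 15 min lysis, CCD luminescence.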
* = called active by the depositor; ? = inconclusive; / = no result given; & = joins results of further samples.

Structure	GLA inh pH 4.5	Rango complex inh	Rango release inh	miR-21 FLuc
O=C(COC(=O)CCCC1=NS(=O)(=O)c2ccccc2N1)Nc1ccc(Br)cc1	/	0.2%	10%	1%&-2%
COc1c(C)cc(C(=O)C2CCCN(C(=O)c3cc4nc(C)cc(C)n4n3)C2)cc1C (centres undefined)	-19	4.1%	5%	-17%
COc1ccc(OC)c(Nc2cc(C)nc3ccc(C)cc23)c1	/	1.6%	9%	/
O=C1CCc2cc(S(=O)(=O)N3CCN(c4ccccc4)CC3)cc3c2N1CCC3	/	4.0%	-13%	/
O=c1cc(-c2ccc(C3CCCCC3)cc2)[nH][nH]1	0	3.4%	-1%	-7%
CN(C)c1ccc(N=Nc2ccccc2C(=O)OCC(=O)N2CCCC2)cc1	-13	?	15%	-34%
Cc1ccccc1Cn1c(=O)n(CCCC(=O)NCc2ccco2)c(=O)c2sccc21	-14	1.2%	-13%	4%
Cc1ccc([N+](=O)[O-])cc1NC(=O)CN(C(=O)c1ccccc1Cl)C1CCCCC1	5	?	30%	4%
COc1ccccc1-n1cnc2cc(NCc3ccccn3)ccc21	-11	0.9%	-6%	-22%
CCN(C[C@H]1N[C@@](C)(C(=O)OC)[C@H]2C(=O)N(Cc3ccccc3)C(=O)[C@@H]12)C(=O)Nc1ccc(F)cc1	/	-3.0%	-3%	/

Remaining list, next part
Structure	GLA inh pH 4.5	Rango complex inh	Rango release inh	miR-21 FLuc
CCSc1nnc(-c2ccc(Cl)cc2)c2ccccc12	5	4.3%	-3%	-4%
COc1ccc(C2CC(c3ccc(C)cc3)Nc3ncnn32)cc1 (centres undefined)	-3	?	-15%	-11%
CC(=O)NC(c1ccc(F)cc1)c1cccnc1 (centres undefined)	5	0.4%	1%	-4%
COc1ccc(Br)cc1CN(C)CC(=O)Nc1cc([N+](=O)[O-])ccc1OC	-10	1.0%	-4%	3%
CCCC1=NN2C(=N)/C(=C\c3ccc(OCCOc4ccc(NC(C)=O)cc4)c(OC)c3)C(=O)N=C2S1	/	?	-13%	0%
COc1ccccc1CCC(=O)N(C)CC(=O)Nc1ccc(Cl)c(C(F)(F)F)c1	/	-1.8%	13%	4%
CS(=O)(=O)c1ccc(C(=O)Nc2ccc(-c3nc4ccccc4[nH]3)cc2)cc1	/	0.1%	3%	-23%
COCCn1c(C(C)C)nc2sc3ccccc3c(=O)c2c1=O	-1	-0.8%	16%	-5%
CCCCOCC(O)Cn1c(C)nc2ccccc21 (centres undefined)	-5	-0.3%	4%	0%
C#CCOCCOCCOCCNc1nc(N2CCN(C(=O)CCCCCCCCCCNC(=O)[C@H]([C@@H](C)CC)n3cc(CCCCN=C(N)N)nn3)CC2)nc(N2CCN(C(=O)CCCCCCCCCCNC(=O)[C@H](CCCCN)n3cc(C)nn3)CC2)n1	/	65µM*	0%	/

Additional compounds:
Structure	GLA inh pH 4.5	Rango complex inh	Rango release inh	miR-21 FLuc
CCOc1ccc(-n2c(C)nc3cc(C(=O)NCc4ccco4)ccc32)cc1	5	0.3%	0%	-12%
COc1ccc(CCNc2nc(C)cc(C)c2C#N)cc1OC	/	-3.9%	-11%	0%
Cc1cc(C)c(NC(=O)CN(C)C(C)C(=O)N2CCc3ccccc32)c(C)c1 (centres undefined)	/	0.2%	0%	/
COc1ccc2[nH]cc(CCNC(=O)c3ccco3)c2c1	/	-0.1%	-4%	/
CC1=NN(c2ccccc2)C(=O)/C1=C/C=C/C=C/N(C)C	-8	16%	6%	15%
CC(OC(=O)c1nsc(Cl)c1Cl)C(=O)NCCc1ccccc1 (centres undefined)	/	3.6%	3%	-3%
C=CCC(O)(CC=C)CNC(=O)C1CCC(=O)N(CCCc2ccccc2)C1 (centres undefined)	/	-1.5%	-5%	-1%
CC(=O)c1cccc(NC(=O)COC(=O)c2ccccc2C)c1	/	0.3%	0%	-60%
COC(=O)CCC(=O)N1CN2CN(C(=O)CCC(=O)OC)CC([N+](=O)[O-])(C2)C1	20	-2.1%	12%	3%
O=c1c2cccc3c2c(nn1CN1CCOCC1)-c1ccccc1-3	-9	2.2%	0%	-25%

Next records:
Structure	GLA inh pH 4.5	Rango complex inh	Rango release inh	miR-21 FLuc
COc1ccc(N(C(=O)CNC(=O)c2cccs2)C(C(=O)NCC2CCCO2)c2ccccc2)cc1 (centres undefined)	2	-0.2%	-1%	-5%
O=C(Nc1cc2c3c(c1)CC(=O)N3CCC2)C1CCCCC1	/	5.4%	18%	/
Cc1ccc(S(=O)(=O)N2CCN(C(=O)c3ccco3)CC2)cc1	/	2.6%	-6%	-2%
COc1ccccc1C(=O)Nc1ccc(S(=O)(=O)N2CCN(C)CC2)cc1	/	0.0%	-4%	/
CC(C)CCOc1ccc(C2(C)NC(=O)NC2=O)cc1 (centres undefined)	/	?	0%	-21%
O=C(NC1CCCC1)C(c1cccnc1)N(C(=O)c1csnn1)c1ccccc1 (centres undefined)	/	-0.9%	-5%	-5%
CCCS(=O)(=O)c1cscc1NC(=O)c1c(-c2c(F)cccc2Cl)noc1C	-10	0.7%	19%	-11%
COc1ccc(CCNC(=O)CNCC2CCCCC2)cc1OC	/	2.9%	7%	0%
Cc1n(N)c2ccccc2[n+]1CC(=O)c1ccccc1	4	5.4%	11%	-2%
CCC[C@@H]1CCCO[C@@](C(=O)NCc2ccc(S(C)(=O)=O)cc2)(C(F)(F)F)C1	/	-0.9%	1%	/

(further entries)
Structure	GLA inh pH 4.5	Rango complex inh	Rango release inh	miR-21 FLuc
Cc1cc(C)n2c(Nc3ccc4c(c3)OCCO4)c(-c3ccco3)nc2n1	-6	/	/	-1%
CCOc1cc(-n2cnnn2)c(OCC)cc1NC(=O)c1cnccn1	-2	-0.7%	-11%	0%
CC1(C)SC(=S)N(/N=C/c2cccnc2)C1N(O)C(=O)Nc1ccccc1 (centres undefined)	4	4.7%	-1%	-1%
N#CCSc1nc2c(cc1C#N)CCCCCC2	-7	2.0%	10%	-7%
Cc1ccc(OCc2csc(N)n2)cc1	1	2.6%	-5%	-46%
C/C(=C\C(=O)c1cccnc1)Nc1ccc(C)c(C)c1	-7	-3.0%	-9%	-40%
O=C(CCCc1ccccc1)Nc1ccc2c(c1)OCCO2	-2	4.8%	-2%	-24%
Cc1ccc(NC(=O)c2ccccc2-c2ccccc2C(=O)O)cc1	2	1.2%	-7%	-4%
CC1(C)C(=O)C2(CCCCC2)C(=O)OC1C(=O)c1ccccc1 (centres undefined)	2	0.1%	-16%	-2%
COCCn1c(SCC(=O)Nc2sc(C)c(C)c2C#N)nnc1C(C)C	-2	-4.6%	0%	0%

Continuation:
smiles	GLA inh pH 4.5	Rango complex inh	Rango release inh	miR-21 FLuc
CN(C)CCCN(C(=O)c1ccco1)c1nc(-c2ccc(Cl)cc2)cs1	/	1.9%	-1%	-14%
Cc1cc(C)c(C(=O)/C=C/c2ccc3c(c2)OCO3)c(=O)[nH]1	5	-1.3%	8%	0%
O=C(NNC(=O)c1cc(S(=O)(=O)N2CCOCC2)c(Cl)cc1Cl)c1ccccc1F	/	-1.7%	-19%	/
O=C(OCc1nnc(-c2ccccc2)o1)c1ccc(S(=O)(=O)NCc2ccco2)cc1	0	-7.5%	-8%	-8%
COc1ccc(NC(=O)CN(C)C(=O)c2cc(-c3ccccc3)nc3ccccc23)cc1	/	0.5%	4%	/
Cn1ncc([N+](=O)[O-])c1C(=O)Nc1ccc(-c2ccccc2)cc1	/	0.1%	25%	-19%
CCC1CCC2(CC1)NC(CO)(CO)CO2 (centres undefined)	-1	0.0%	2%	0%
CCOc1ccc(CC(=O)NNC(=S)NC2CCCCC2)cc1OCC	-2	-1.4%	9%	0%
COc1cc(C(=O)NCCN2CCN(C(=O)c3cc(OC)c(OC)c(OC)c3)CC2)cc(OC)c1OC	/	-0.9%	-2%	-1%
O=C(NC1CC2CCCC(C1)N2S(=O)(=O)c1ccccc1)c1ccco1 (centres undefined)	-10	-0.2%	0%	-13%

Looked up above:
GLA inh pH 4.5 with `Cc1cc(C)c(C(=O)/C=C/c2ccc3c(c2)OCO3)c(=O)[nH]1` : 5
Rango release inh with `COc1cc(C(=O)NCCN2CCN(C(=O)c3cc(OC)c(OC)c(OC)c3)CC2)cc(OC)c1OC` : -2%

The results go on:
smiles	GLA inh pH 4.5	Rango complex inh	Rango release inh	miR-21 FLuc
Cc1nnc(SCC(=O)Nc2ccc(OC(F)F)c(Cl)c2)n(N)c1=O	/	0.7%	1%	/
O=C(c1cc(-c2ccc(Cl)c(Cl)c2)on1)N1CCCC1	6	/	/	-22%
Cc1ccc(/C=N/n2c(C)nnc2C)s1	-5	-0.5%	0%	0%
CC1(C)Cc2c(cnn2-c2ccc(F)cc2)C(NC(=O)CCCN2CCCCC2=O)C1 (centres undefined)	/	-0.3%	-6%	-20%
Cc1ccc(NC(=O)C2CCCN2S(=O)(=O)c2ccc(-c3ccc(=O)[nH]n3)s2)c(C)c1 (centres undefined)	/	3.6%	10%	-8%
CCn1nc(C(=O)NNC(=O)c2ccc(OC(F)F)cc2)c2ccccc2c1=O	/	4.9%	8%	/
C=CCNC(=O)COc1ccccc1C#N	-1	0.5%	-17%	-14%
O=C(COc1ccc([N+](=O)[O-])cc1)Nc1ccncc1	-4	0.5%	2%	5%
CCOc1ccc(N(CC(=O)Nc2ccc3c(c2)OCCO3)S(=O)(=O)c2c(C)noc2C)cc1	-7	-0.2%	21%	22%
O=C(Nc1cc(Br)ccc1O)C1CC(c2ccccc2Cl)=NO1 (centres undefined)	/	0.2%	-2%	-4%

Remaining list, next part:
smiles	GLA inh pH 4.5	Rango complex inh	Rango release inh	miR-21 FLuc
CCCNC(=O)c1cc(S(=O)(=O)N2CCc3ccccc32)ccc1F	-6	1.8%	-2%	0%
COc1cccc(Nc2ncnc3sccc23)c1	/	?	?	-66%
CCC(c1nnnn1CS(=O)(=O)c1ccc(C)cc1)N1CCN(c2nc3ccccc3s2)CC1 (centres undefined)	-9	-1.7%	8%	1%
Cc1[nH]n(-c2ccccc2)c(=O)c1-c1cccc(Cl)c1	-1	3.3%	-9%	-10%
Nc1cccnc1Sc1ccccc1	/	-0.9%	0%	/
Cc1cccc(Oc2nc(CN3CCOCC3)nc3sc4c(c23)CCCC4)c1	0	1.4%	2%	-9%
O=C(N/N=C/c1cccc2ccccc12)c1n[nH]c2c1CCCC2	10	0.1%	-9%	13%
Cc1ccc(NC(=O)Nc2ccc(C(=O)N3CCOCC3)cc2)cc1	5	1.8%	-16%	-10%
Cc1cc(N2C(=O)CC(N3CCN(C(c4ccccc4)c4ccccc4)CC3)C2=O)no1 (centres undefined)	-18	-1.0%	14%	-5%
COCCN(Cc1cc2cc3c(cc2[nH]c1=O)OCO3)C(=O)c1cccs1	7	/	/	2%

Part of the list above in order of SMILES length, smallest number first.
smiles	GLA inh pH 4.5	Rango complex inh	Rango release inh	miR-21 FLuc
O=C(N/N=C/c1cccc2ccccc12)c1n[nH]c2c1CCCC2	10	0.1%	-9%	13%
CCCNC(=O)c1cc(S(=O)(=O)N2CCc3ccccc32)ccc1F	-6	1.8%	-2%	0%
Cc1cc(N2C(=O)CC(N3CCN(C(c4ccccc4)c4ccccc4)CC3)C2=O)no1 (centres undefined)	-18	-1.0%	14%	-5%

Single records (already shown). Screens in order: GLA inh pH 4.5, Rango complex inh, Rango release inh, miR-21 FLuc
COCCN(Cc1cc2cc3c(cc2[nH]c1=O)OCO3)C(=O)c1cccs1 reads 7, /, /, 2%
Nc1cccnc1Sc1ccccc1 reads /, -0.9%, 0%, /

(next part)
smiles	GLA inh pH 4.5	Rango complex inh	Rango release inh	miR-21 FLuc
CC(C)CC(=O)Nc1c2c(nn1-c1cccc(Cl)c1)CS(=O)(=O)C2	/	-2.8%	10%	0%
CCC1Oc2ccc(C)cc2N(CC(=O)NCc2ccco2)C1=O (centres undefined)	-3	-0.6%	11%	-1%
O=C(Nc1ccccn1)c1ccc2c(c1)S(=O)(=O)c1ccccc1C2=O	3	-0.8%	9%	-11%
NC(=O)CN1CCOCCOCCN(CC(N)=O)CCOCCOCC1	-2	-0.7%	10%	-2%
O=C(Cc1ccccc1)NS(=O)(=O)c1ccc(N=NN2CCOCC2)cc1	5	5.3%	-9%	-1%

A portion of the library (hit frequency here may not be typical).
